Screening results deposited in PubChem BioAssay by ICCB-Longwood Screening Facility, Harvard Medical School.
Sa growth 42C: inhibitors of Staphylococcus aureus growth at 42 °C. S. aureus RN4220 growth, OD600, 20 h; hits give low values. relative growth, % (no concentration beside the values). hit rate 0.53% among 170,000. AID 720641;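 active = growth at 42 °C up to 50% and 20 or more points under that at 30 °C, or under 10% at both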;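 also: 300 nL library stock went into each well; scaled to the means of positive and negative controls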
GIV Gai3 FP: GIV-Galpha-i interaction inhibition. P08753. Galpha-i3/FITC-GIV peptide fluorescence polarization, 90 min; hits give low values; scaled: aluminum fluoride 0%, vehicle 100%. percent of control (FP), % (test concentration not listed). hit rate 0.42% among 210,000;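 active = replicate mean at 85% of control or lower, very high polarization wells dropped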;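 also: wells of about 15 µL received 100 nL stock; the first replicate is given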
Target sequence (P08753 whole entry, looked up): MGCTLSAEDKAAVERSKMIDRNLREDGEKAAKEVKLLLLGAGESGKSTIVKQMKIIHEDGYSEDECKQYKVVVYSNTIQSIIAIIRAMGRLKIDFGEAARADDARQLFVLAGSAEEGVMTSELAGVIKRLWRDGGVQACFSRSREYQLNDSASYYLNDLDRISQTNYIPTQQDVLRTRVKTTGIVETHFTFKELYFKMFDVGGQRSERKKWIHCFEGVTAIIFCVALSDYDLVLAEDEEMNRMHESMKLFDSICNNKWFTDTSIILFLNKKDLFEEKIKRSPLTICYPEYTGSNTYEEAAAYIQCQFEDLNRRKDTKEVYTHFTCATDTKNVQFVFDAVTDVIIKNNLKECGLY
HCMV UL50-53 inh: disrupts HCMV UL50-UL53 complex binding. HTRF UL50-UL53 interaction, normalized percent inhibition. inhibition, % (concentration not given with the values). hit rate 0.15% among 190,000. AID 1918969;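 active = both replicates at 50% or more, plus weaker picks with an unusually low signal ratio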;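 also: stock transfer was 100 nL into about 20 µL; 0% = negative control wells and 100% = wells with untagged competitor protein; inactives centre near -12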
Sa growth 42C second temp: recorded beside Sa growth 42C, whose call it bears; relative growth, %; measured here: growth at 30 °C;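 optical density after 20 h as mean of two plates; 100% = untreated growth and lower means inhibition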
Active calls of the source: *; nt = no result given; & = joins results of further samples.

SMILES	Sa growth 42C	Sa growth 42C second temp	GIV Gai3 FP	HCMV UL50-53 inh
O=C(COC(=O)c1c(F)cccc1F)c1cccc(Cl)c1	119	86	nt	-33
CCn1c(CN(c2ccc(F)cc2)S(C)(=O)=O)nnc1SCC(=O)NC1CCCCC1C (stereo unspecified)	nt	nt	101	-25
CN1c2ccc(Cl)cc2-c2nc(SCC(=O)Nc3cc(F)ccc3F)ncc2S1(=O)=O	83	95	96	nt
Cc1ccc2c(Sc3ccc(Cl)cc3)c(C(=O)NCCN3CCOCC3)[nH]c2c1	108	86	94	nt
CN(c1ccc(O)cc1)c1nc(-c2cccs2)cs1	99	37	105	-35
CCOC(=O)c1c(NC(C)=O)c2c3c(sc2n1CC(=O)Nc1cc(OC)ccc1OC)CCCC3	nt	nt	102	-9
O=C(CSc1nc2ccc(NC(=O)C3CCCCC3)cc2s1)NCC1CCCO1 (stereo unspecified)	88	74	nt	-13
Cn1c(Cn2cnc3ccccc32)nc2ccccc21	89	91	101	nt
Cc1ccc(S(=O)C(F)(F)F)cc1 (stereo unspecified)	88	95	nt	18
Cc1oc(-c2ccc(Cl)cc2)nc1CS(=O)CC(=O)NCCc1ccccc1 (stereo unspecified)	116	89	104	nt
CCOc1cccc(=O)c2c(C)oc(C)c12	92	76	92	-57
CC(C(=O)NCC1(c2ccccc2)CCOCC1)N1CCCCC1 (stereo unspecified)	97	87	107	-10
CCc1ccc(C(=O)CSc2nnc(CN3CCCC3)n2Cc2ccccc2)s1	69	59	nt	-22
COc1ccccc1C(=O)Nc1ccc2nc(SC)sc2c1	nt	nt	102	-4
CCCCNC(=O)C1OCCc2ccccc21 (stereo unspecified)	108	79	103	6
CCN1CCN(c2cc(C)c3cc(NC(=O)c4ccncc4)ccc3n2)CC1	91	86	96	nt
COc1cc2c(cc1OC)CN(C(=O)c1ccco1)CC2	97	86	nt	0
O=C(O)COc1cc(Br)c(Br)c(Br)c1O	124	108	nt	-5
COc1ccccc1Cc1nc2ccccc2nc1SCC(=O)NCc1ccc(C)cc1	87	92	97	nt
N#CN=C(N)c1sc2nc3c(cc2c1N)CCCCC3	78	77	nt	-65

Single records, from the list above. Screens in order: Sa growth 42C | Sa growth 42C second temp | GIV Gai3 FP | HCMV UL50-53 inh
Entry for `CCc1ccc(C(=O)CSc2nnc(CN3CCCC3)n2Cc2ccccc2)s1` → 69 | 59 | nt | -22
Entry for `COc1ccccc1Cc1nc2ccccc2nc1SCC(=O)NCc1ccc(C)cc1` → 87 | 92 | 97 | nt
Entry for `CC(C(=O)NCC1(c2ccccc2)CCOCC1)N1CCCCC1` (stereo unspecified) → 97 | 87 | 107 | -10

(continued)
SMILES	Sa growth 42C	Sa growth 42C second temp	GIV Gai3 FP	HCMV UL50-53 inh
COc1ccccc1NC(=O)Cn1nnc(C(=O)NCc2cccs2)c1N	110	78	104	-11
Cc1ccc2c(=O)cc(C(=O)Nc3c(C(=O)Nc4cccc(Cl)c4)oc4ccccc34)oc2c1	96	89	101	4
CC(C)NC(=O)N1CCCC(c2cccc(C(=O)NCc3ccc4c(c3)OCO4)c2)C1 (stereo unspecified)	nt	nt	106	-15
C/C(=N\N)c1c(C)cc(C)[nH]c1=O	124	86	103	nt
COc1ccccc1O	92	82	98	-29
Cc1ccccc1OCC(=O)Nc1ccc2nc(SCC(=O)N3CCCC3)sc2c1	89	53	106	-23
COC(=O)C1=C(C)NC2=C(C(=O)CCC2)C1c1ccc(-c2cccs2)s1 (stereo unspecified)	103	87	98	-26
CC(C)(CNc1nnnn1-c1ccccc1)N1CCOCC1	74	96	nt	-20
CCn1c(CNc2ccc(C(=O)O)cc2)nc2ccccc21	90	89	102	-10
CCOc1ccccc1NC(=O)Cc1ccc(OCc2c(C)noc2C)cc1	87	92	nt	-6
CC(C)c1ncc(C(O)c2ccccc2)n1C (stereo unspecified)	97	80	nt	-27
COc1cc(NC(=O)CCS(=O)(=O)c2nc(-c3cccs3)cc(C(F)(F)F)n2)cc(OC)c1OC	114	82	107	-47
CCCCc1nn2c(=O)cc(COC(=O)C(C)Oc3ccccc3)nc2s1 (stereo unspecified)	102	90	103	nt
COc1cc(-c2nc3ccccc3c(=O)n2NC(=O)Cn2nc(C(F)(F)F)cc2C(F)(F)F)cc(OC)c1OC	nt	nt	110	-8
Nc1cccc(Cl)c1F	91	99	nt	8
Cc1nn(-c2ccccc2)c2c1-c1sc(C(=O)N3CCCC3)cc1CC2	101	86	109	-31
CCCC(C)NC(=O)Cc1ccc(Cl)cc1 (stereo unspecified)	107	84	nt	-8
Cc1ccc(C(CNC(=O)c2cc(-c3ccc(Br)cc3)on2)N(C)C)cc1 (stereo unspecified)	nt	nt	109	-4
CCOC(=O)c1ccc(N2C(=O)c3n[nH]c(-c4ccco4)c3C2c2ccc(O)cc2)cc1 (stereo unspecified)	113	66	106	-17
CCOc1ccc(CNC(=O)C2=Cc3cc(Br)ccc3OC2)cc1OC	86	88	101	nt

A section from further up:
SMILES	Sa growth 42C	Sa growth 42C second temp	GIV Gai3 FP	HCMV UL50-53 inh
COc1cc(-c2nc3ccccc3c(=O)n2NC(=O)Cn2nc(C(F)(F)F)cc2C(F)(F)F)cc(OC)c1OC	nt	nt	110	-8
Nc1cccc(Cl)c1F	91	99	nt	8
Cc1nn(-c2ccccc2)c2c1-c1sc(C(=O)N3CCCC3)cc1CC2	101	86	109	-31
CCCC(C)NC(=O)Cc1ccc(Cl)cc1 (stereo unspecified)	107	84	nt	-8
Cc1ccc(C(CNC(=O)c2cc(-c3ccc(Br)cc3)on2)N(C)C)cc1 (stereo unspecified)	nt	nt	109	-4
CCOC(=O)c1ccc(N2C(=O)c3n[nH]c(-c4ccco4)c3C2c2ccc(O)cc2)cc1 (stereo unspecified)	113	66	106	-17
CCOc1ccc(CNC(=O)C2=Cc3cc(Br)ccc3OC2)cc1OC	86	88	101	nt

Next records.
SMILES	Sa growth 42C	Sa growth 42C second temp	GIV Gai3 FP	HCMV UL50-53 inh
OC1CCC(Nc2ccnc3cc(Cl)ccc23)CC1 (stereo unspecified)	97	99	nt	-8
NC[C@@H]1O[C@H](O[C@@H]2[C@@H](CO)OC(O[C@@H]3[C@@H](O)[C@H](N)C[C@H](N)[C@H]3OC3O[C@H](CN)[C@@H](O)[C@H](O)[C@H]3N)[C@@H]2O)[C@H](N)[C@@H](O)[C@@H]1O (stereo partly specified)	82	88	nt	-15
O=c1nc(SCc2ccccc2F)c2c(n1CC1CCCO1)CCC2 (stereo unspecified)	nt	nt	106	-26
O=S(=O)(NCc1cc(F)cc2c1OCOC2)c1cccc2nonc12	88	84	109	-58
Cc1sc(-c2cc3c([nH]c2=O)CC(c2ccccc2)CC3=O)nc1-c1ccc(Cl)cc1 (stereo unspecified)	99	88	115	-11
CC1(C)C(=O)N(CC(=O)Nc2ccc(F)cc2)c2ccccc21	nt	nt	101	18
NNC(=O)N/N=C/c1ccc(I)cc1	103	91	99	-30
COC(=O)Cn1nnc(-c2nnn(COC(C)=O)c2-c2ccccc2)c1-c1ccccc1	88	91	nt	-6
Cc1ccc(CN(C(=O)COc2ccc([N+](=O)[O-])cc2)c2ccccn2)cc1	106	85	101	-22
Clc1ccc(-c2nn3c(-c4ccco4)nnc3c3ccccc23)cc1	89	76	102	nt
O=C(c1cc2ccccc2oc1=O)n1cc(Br)cn1	107	86	104	-15
CCN(c1cccc2ccccc12)S(=O)(=O)c1ccccc1	107	93	98	-28
Cc1ccc(/C=C2\SC(=S)N(CCC(=O)Nc3sc4c(c3C(N)=O)CCCC4)C2=O)cc1	nt	nt	104	-6
O=C(CCCn1nc(-c2ccccc2)c2cc(Cl)ccc21)NCc1ccccc1	nt	nt	98	3
COc1cccc(NC(=O)Cn2c(=O)n(CCc3ccc(OC)c(OC)c3)c(=O)c3ccccc32)c1	103	82	107	-9
CCOC(=O)/C=C(/C)Nc1ccc(OC)cc1	64	93	nt	3
Cc1ccc(S(=O)(=O)CCSc2nc(C3CC3)cc(C(F)(F)F)c2C#N)cc1	102	91	nt	-9
O=C1CCN(c2ccccc2)N1CCOc1ccc(Cl)cc1Br	82	72	97	-14
CCc1nnc(NC(=O)CSc2ccc3nnc(-c4ccccc4)n3n2)s1	nt	nt	98	-27
COc1ccccc1CNC(=O)COc1ccc(-n2ccnc2)cc1	117	87	nt	-1
C/C(Cn1c(=O)oc2ccccc21)=N\OC(=O)Nc1ccccc1	107	97	105	-11
CC(C)(C)C(N)=O	104	99	nt	11
CCOC(=O)C1CCCN(S(=O)(=O)c2cc(-c3ccc(=O)[nH]n3)ccc2Cl)C1 (stereo unspecified)	nt	nt	100	-80
CC(C)Oc1ccc(CNC(=O)CCS(=O)(=O)c2ccc3c(c2)CC(=O)N3C)cc1	97	92	103	-3
O=C(NN1CCOCC1)c1cccc(COc2cccc(Br)c2)c1	104	105	108	nt
c1nc(SCc2ccon2)c2c3c(sc2n1)CCC3	100	107	nt	2
Fc1ccc(CSc2nnc(SCc3ccccc3)s2)cc1	97	93	nt	2
O=C(COc1ccc(Br)cc1)NCCCN1CCCC1=O	82	90	nt	-16
CSC(=S)Nc1ccc(NC(C)=O)cc1	114	81	100	0
CN(Cc1ccccc1)C(=O)c1nc(-c2ccc(Cl)cc2)n2c1CCCCC2	93	89	104	nt
Cc1cc(C)cc(NC(=O)c2cc3c([nH]c2=O)CCCC3=O)c1	nt	nt	106	-17
COc1ccc(C2c3c(-c4ccc(Cl)cc4)n[nH]c3C(=O)N2c2ccccc2)cc1 (stereo unspecified)	nt	nt	97	-9
O=C(Nc1ccc2[nH]ccc2c1)c1ccc(F)cc1	114	102	103	12
FC(F)(F)c1ccnc(NCCNc2ncccc2C(F)(F)F)n1	118	99	108	2
Clc1ccc(CN2COc3c(cc(Cl)c4cccnc34)C2)cc1	nt	nt	104	6
O=C(NCCCN1CCCC1)c1csc2c1CCCC2	106	84	108&101	-18&-1
Oc1cccc2ccc(N3CCOCCOCCN(c4ccc5cccc(O)c5n4)CCOCCOCC3)nc12	nt	nt	103	-3
COc1ccc(NC(=NCc2ccncc2)NC(=O)c2cccc(N(C)C)c2)cc1OC	nt	nt	102	-40
Cc1ccc(CN2CCSc3ccc(C(=O)Nc4ccc(F)cc4F)cc32)cc1	99	87	109	-5
c1cnc2nc(-c3ccc4c(c3)OCCO4)cn2c1	96	85	103	-56
CCNc1nc(-c2ccc(Br)cc2)cs1	82	73	98	-21
O=S1(=O)N=C(CCCl)Nc2ccccc21	84	81	98	9
O=C1/C(=C/c2cccc3c2OCO3)CCC/C1=C\c1cccc2c1OCO2	98	91	nt	-9
CCOc1ccc(C(=O)NC2CC2)c(OCC)c1	98	102	105	6
c1ccn(-c2ccc(N3CCOCC3)cc2)c1	106	74	103	-7
Cc1noc(C)c1CSCC(=O)OCc1nnc(-c2ccccc2Br)o1	75	86	nt	-16
O=C(NCC1COc2ccccc2O1)C12CC3CC(CC(O)(C3)C1)C2 (stereo unspecified)	99	94	nt	-11
CC(=O)N1CCc2c(sc3c2c(=O)n(CCc2ccccc2)c(=O)n3Cc2ccc(Cl)cc2)C1	121	80	106	-3
Cc1ccc(-c2nn(-c3ccccc3)cc2CSC(=N)N)cc1	57	39	nt	-14
Cc1ccc(S(=O)Cc2nc(-c3ccc(C(=O)NC(C)c4ccccc4)cc3)oc2C)cc1 (stereo unspecified)	137	84	104	nt

Next results.
SMILES	Sa growth 42C	Sa growth 42C second temp	GIV Gai3 FP	HCMV UL50-53 inh
CCCC(=O)NCCc1csc(-c2cccc(F)c2)n1	nt	nt	107	-29
COc1ccccc1N1CCN(C(=O)Cn2c(=O)n3nc(-c4cccc(F)c4)nc3c3ccccc32)CC1	95	96	95	nt
Brc1cc2c(cc1CSc1nc3ncccc3[nH]1)OCO2	111	96	101	-15
CC(C)(C)n1nc(-c2ccc(Cl)cc2)c(C#N)c1N	114	82	105	-31
CCCCOc1ccc(C(=O)NCCc2sc(-c3ccc(F)cc3)nc2C)cc1	nt	nt	105	-14
CCN(C(=O)Cn1nnc2sc3c(c2c1=O)CCC(C(C)(C)C)C3)c1cccc(C)c1 (stereo unspecified)	95	83	98	-35
CC(C(=O)NC1CCCc2ccccc21)N1CCN(c2ccc(F)cc2)CC1 (stereo unspecified)	90	89	nt	-10
CCOC(=O)Cn1c(=O)n(Cc2ccco2)c2ncccc21	96	90	105	7
COc1cccc(-c2cc(C(=O)N3CCCC3c3ccc(Cl)cc3)on2)c1 (stereo unspecified)	nt	nt	108	-24
O=C(CC12CC3CC(CC(Br)(C3)C1)C2)NCC1CCCO1 (stereo unspecified)	94	93	nt	-9
COc1ccc(OC(=O)c2ccc3nonc3c2)cc1	115	88	101	-7
CCSc1nnc2n(-c3ccccc3)c3ccccc3n12	109	67	110	nt
CCC(Oc1ccccc1Cl)C(=O)O (stereo unspecified)	110	76	106	-7
CCn1c(C)c(C)c2cc(C(=O)NC3CCCC3)ccc21	108	92	104	-14
CC(C)(C)c1cc(-c2nc(-c3ccccn3)no2)n(Cc2ccccc2)n1	109	107	109	-2
CCc1ccc2c(CN3CC(C)OC(C)C3)cc(=O)oc2c1 (stereo unspecified)	87	94	nt	6
O=S1(=O)NC(c2ccccc2O)Nc2ccccc21 (stereo unspecified)	nt	nt	101	-18
O=C(Cn1ncc2c3ccccc3n(Cc3ccc(F)cc3)c2c1=O)NCCC1=CCCCC1	104	92	106	-11
CC1Cc2ccccc2N1C(=O)CSc1nc2ccc(NC(=O)C3CCCCC3)cc2s1 (stereo unspecified)	nt	nt	99	-20
CC1CCCN(c2nnc(NC(=O)NCc3ccccc3)s2)C1 (stereo unspecified)	93	87	104	-22
CCN(CC)C(=O)Nc1ccc(OC)cc1	95	94	99	-9
